Autofluor counter: counter-screen for toxin protease inhibitors: compound fluorescence; AID 624483; 360,000 tested, 3.1% active; compound autofluorescence counterscreen, microsphere flow cytometry; stronger effect = higher value; fluorescence intensity (concentration not given with the values);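 active = at least 3 SD above the mean of all compounds, about 16000 in these data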;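 also: 100 nL of 1 mM stock went into each well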
Sa ugtP lethal: kills S. aureus RN4220 lacking UgtP; S. aureus RN4220 ugtP deletion, OD600 growth, 16 h; some inactives read as strong as hits; growth inhibition, % (test concentration not listed); 330,000 tested, 0.54% active;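 active = z-score under -3 and OD600 up to 0.15 on both plates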;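 also: plate controls were untreated wells for no effect and antibiotic for full effect; wells of about 80 µL received 100 nL stock; the first replicate is given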
RN4220 kill: kills Staphylococcus aureus RN4220; S. aureus RN4220 growth, OD600, 16 h; inhibition, % (no concentration beside the values); 330,000 tested, 0.33% active; AID 1259311;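 active = z-score of -3 or lower and OD600 up to 0.18 on both plates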;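 also: plate controls were untreated cells for no effect and reference antibiotic for full effect; stock transfer was 100 nL into about 80 µL; one replicate is shown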
PrP UTR inh: suppresses PrP 5' UTR mRNA reporter expression | AID 488862 | inhibition, % (concentration not given with the values) | 340,000 tested, 0.35% active | cell-based PrP 5' UTR mRNA reporter, plate reader;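 active = every replicate at 50% or more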;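 also: 0 = median of the neutral control wells; tested in H4 reporter cells; numbers are from one replicate; inactives centre near -14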
BJeLR lethal: kills HRASV12-expressing BJeLR cells; BJeLR (HRASV12) viability, CellTiter-Glo ATP luminescence, 48 h; reference of the scale not given here; inhibition, % (no concentration beside the values); 300,000 tested, 0.17% active;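 active = replicate mean above 50%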;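 also: 50 nL library stock added to about 25 µL; numbers are from one replicate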
Mtb hypoxia inh: Mtb hypoxia fluorescent reporter inhibition; M. tuberculosis hypoxia-regulated fluorescent reporter, fluorescence; fluorescence inhibition, % (concentration not given with the values); 300,000 tested, 0.1% active;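 active = 35 to 45% if threefold the growth effect, above 45% if 1.5-fold the growth effect; inactive = the rest, general growth blockers included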;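 also: wells of about 50 µL received 100 nL stock; 0% = vehicle wells and 100% = reference inhibitor wells; whole bacteria with a GFP reporter of the hypoxia response; strong numbers were not always called active; many hits fall short of the cut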
Mtb hypoxia inh growth: recorded beside Mtb hypoxia inh, whose call it bears; growth inhibition, %; measured here: M. tuberculosis growth (absorbance);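 0% = vehicle and 100% = reference antibiotic; read after six days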
Numbers without * were called inactive; / = no result given; & = joins results of further samples. No enrichment for hits; any-hit rate near 4%.

Sample of the layout (4 entries):
1: Cc1noc(C)c1C(=O)OCC(=O)NC1CCCCC1C (configuration not stated)
2: COc1cccc(N2CC(O)=C(c3nc4ccccc4c(=O)[nH]3)C2=N)c1
3: O=C(COC(=O)/C=C/c1cccc(Cl)c1)NCCc1ccc(Cl)cc1Cl
4: CCOc1ncccc1C(=O)N1CCN(S(=O)(=O)c2cccs2)CC1
assay / entry	1	2	3	4
Autofluor counter	4072	6686	7721	3286
Sa ugtP lethal	4	1	-12	4
RN4220 kill	2.9	2.7	5.8	5.1
PrP UTR inh	-22	-10	-23	-12
BJeLR lethal	/	6	-22	/
Mtb hypoxia inh	0	-2	0	3
Mtb hypoxia inh growth	0	-5	4	2

Main list (from the top)
1: Cc1noc(C)c1C(=O)OCC(=O)NC1CCCCC1C (configuration not stated)
2: COc1cccc(N2CC(O)=C(c3nc4ccccc4c(=O)[nH]3)C2=N)c1
3: O=C(COC(=O)/C=C/c1cccc(Cl)c1)NCCc1ccc(Cl)cc1Cl
4: CCOc1ncccc1C(=O)N1CCN(S(=O)(=O)c2cccs2)CC1
5: O=C(Nc1ccc(S(=O)(=O)Nc2nccs2)cc1)c1ccc(N2C(=O)c3ccccc3C2=O)cc1
6: COc1ccc(C2C3=C(CCCC3=O)NC3=C2C(=O)c2ccccc23)cc1 (configuration not stated)
7: Cc1ccccc1C(=O)N1CCC(C(=O)Nc2ccc(F)cc2)CC1
8: CN(C)CCCNC(=S)N=c1sccn1Cc1ccccc1Cl
9: Cc1ncc([N+](=O)[O-])n1CC(=O)NN=Cc1ccc(F)cc1
10: CCOc1ncccc1C(=O)Nc1cccc(-c2nnc3n2CCCCC3)c1
assay / entry	1	2	3	4	5	6	7	8	9	10
Autofluor counter	4072	6686	7721	3286	2778	/	4438	/	/	3135
Sa ugtP lethal	4	1	-12	4	0	8	-2	4	8	5
RN4220 kill	2.9	2.7	5.8	5.1	2.2	1.4	3.8	-2.9	8.1	8.3
PrP UTR inh	-22	-10	-23	-12	-32	/	-10	/	/	40
BJeLR lethal	/	6	-22	/	6	-2	-3	/	/	-33
Mtb hypoxia inh	0	-2	0	3	12	-1	6	-3	-6	1
Mtb hypoxia inh growth	0	-5	4	2	7	0	7	3	-9	13

11: CCCCC(=O)Nc1ccc(C(=O)Nc2cc(C(F)(F)F)ccc2Cl)cc1
12: Cc1c(C(=O)N(Cc2ccccc2)Cc2cccnc2)cnn1-c1ccc(F)cc1
13: CCc1nn(C(C)C(=O)NCc2cccc(Cl)c2)c(=O)c2cc3occc3n12 (configuration not stated)
14: C/C(=N\NC(=O)Cc1cccc2ccccc12)c1ccncc1
15: CCc1ccc(OCc2nnc(NC(=O)c3cccs3)s2)cc1
16: CC(=NNC(=O)CSc1nc2ccccc2o1)c1cccc(O)c1
17: COc1cc(Cl)ccc1NC(=S)N(CCN1CCOCC1)C1CCN(C(C)=O)CC1
18: O=C1SC(SC(=Nc2ccccc2)Nc2ccccc2)C(=O)N1c1ccccc1 (configuration not stated)
19: Cc1ccc(C(=O)/C=C/Nc2ccc3c(c2)OCO3)cc1
20: CCCc1nnc(SCC(=O)Nc2nc(C)cs2)n1CCOC
assay / entry	11	12	13	14	15	16	17	18	19	20
Autofluor counter	2679	3416	5754	2091	5047	/	4306	4542&1923	4002	4587
Sa ugtP lethal	2	4	9	/	-3	2	10	-2&-5	4	14
RN4220 kill	-2.7	4.6	7.0	/	3.3	-5.8	2.0	12&4.8	-1.2	6.2
PrP UTR inh	-17	-9	-22	17	-26	/	-6	-42&-28	-21	4
BJeLR lethal	-2	-6	9	-4	-9	/	5	-2	-3	-1
Mtb hypoxia inh	15	14	3	/	/	3	4	8&11	/	-3
Mtb hypoxia inh growth	11	0	3	/	/	2	9	7&-3	/	-8

21: COc1ccc2sc(SCCCS(=O)(=O)O)[n+](CCCS(=O)(=O)[O-])c2c1
22: Cc1cc(C(=O)OCC(=O)Nc2cc(S(=O)(=O)N3CCOCC3)ccc2Cl)c(C)o1
23: Cc1cc(C(=O)NN=C/C=C/c2ccc([N+](=O)[O-])cc2)n[nH]1
24: Cc1nc2ccccc2n1CC(O)COc1ccc(Br)cc1 (configuration not stated)
25: Nc1cc(=O)[nH]c(=O)n1CCc1ccccc1
26: Cc1ccc(S(=O)(=O)N2CC[C@@H]2C(=O)O)cc1
27: Cc1csc(C(C#N)C(=O)c2cc3ccccc3o2)n1 (configuration not stated)
28: COc1ccccc1N1C(=O)CSC1=NC(=O)c1ccccc1
29: O=C(OCc1nnc(-c2ccccc2)o1)c1cc(=O)c2ccccc2o1
30: CCCCN1C(=O)CCC(C(=O)O)C1c1ccc([N+](=O)[O-])cc1 (configuration not stated)
assay / entry	21	22	23	24	25	26	27	28	29	30
Autofluor counter	1656	3663	/	4530	4741	6150	10607	5632	3453	2925
Sa ugtP lethal	/	9	7	5	6	11	79	9	-2	9
RN4220 kill	/	3.5	4.5	3.8	1.4	3.2	84*	2.7	2.8	0.6
PrP UTR inh	11	2	/	-23	-8	/	-82	-26	-5	-17
BJeLR lethal	1	-2	/	2	6	1	6	-1	-5	4
Mtb hypoxia inh	/	-6	2	0	3	10	4	-1	4	3
Mtb hypoxia inh growth	/	-8	3	10	-2	5	9	8	4	0

31: COc1ccc(NC(=O)c2cc(N3C(=O)C4C5CCC(C5)C4C3=O)ccc2Cl)c(OC)c1 (configuration not stated)
32: O=C(NCCCN1CCOCC1)c1ccccc1-c1ccccc1
33: CC(=O)c1c(C)[nH]c(C(=O)N2CCCC(C)C2)c1C (configuration not stated)
34: COc1ccc(C(=O)N(CC2CCCO2)C(C(=O)NC2CCCC2)c2ccc(Cl)cc2)cc1OC (configuration not stated)
35: O=C1/C(=C\c2ccc3c(c2)OCO3)N2CCC1CC2
36: O=C(O)c1ccc(F)c(S(=O)(=O)Nc2ccccc2Cl)c1
37: O=C(Nc1nnc(C2CC2)s1)c1cc(S(=O)(=O)N2CCN(c3ccccc3)CC2)ccc1Cl
38: Cc1ccc(C)c(Cn2nc(-c3ccccc3)ccc2=O)c1
39: CCCCCC(=O)Nc1ccc2ccccc2c1
40: NC(CN1CCCC1=O)=NO
assay / entry	31	32	33	34	35	36	37	38	39	40
Autofluor counter	5446	3453	4052	21196*	9724	23288*	8366	2990	1948	/
Sa ugtP lethal	6	4	6	-3	-2	27	5	3	-4	3
RN4220 kill	0.5	10	3.7	1.2	8.8	-3.2	2.1	-1.4	1.5	3.5
PrP UTR inh	-29	-14	-14	1	-24	-32	-17	-7	-49	/
BJeLR lethal	9	1	1	5	-6	5	2	-2	-15	/
Mtb hypoxia inh	7	-2	2	-9	10	5	6	11	-1	-1
Mtb hypoxia inh growth	9	-5	3	-6	-10	8	1	14	2	0

41: Cc1cc(OCC(=O)NCc2ccncc2)c2c(C)cc(=O)oc2c1
42: c1ccc2nc(N3CCCC3)c(N3CCCCC3)nc2c1
43: Cc1ccc(OCC(=O)Nc2ccccc2C(=O)NC2CC2)cc1
44: CC(C)NC(=O)c1c2c(nc3ccccc13)CCCC2
45: Cc1ccccc1OCC(=O)NC(=S)Nc1ccc(N2CCCC2)cc1
46: COc1ccc(C(O)(c2ccccc2)C(C(=O)O)c2ccccc2)cc1 (configuration not stated)
47: O=C(CN1C(=O)S/C(=C\c2ccccc2F)C1=O)NC1C=CS(=O)(=O)C1 (configuration not stated)
48: Cn1c(Nc2ccc(F)cc2)nc2ccccc21
49: O=C(NN=Cc1cccc([N+](=O)[O-])c1)c1cc(-c2ccc3c4c(cccc24)CC3)n[nH]1
50: CC(CN1CCOCC1)OC(=O)c1ccc2c(c1)OCCO2 (configuration not stated)
assay / entry	41	42	43	44	45	46	47	48	49	50
Autofluor counter	5491	3984	3866	3132	3024	3921	5412	3499	/	3102
Sa ugtP lethal	6	78	13	2	-4	12	3	-1	-12	-3
RN4220 kill	3.9	5.3	2.6	-6.5	1.4	6.1	2.4	1.8	-8.6	-8.2
PrP UTR inh	4	-20	-8	-28	-28	-28	-11	-8	/	-46
BJeLR lethal	1	/	/	-11	-7	/	-6	0	/	12
Mtb hypoxia inh	-1	14	4	16	/	20	1	/	14	-4
Mtb hypoxia inh growth	5	3	-2	8	/	11	2	/	-6	8

51: Cc1csc(NC(=O)c2ccc(Br)s2)n1
52: COc1ccc(C(=O)C2CCCN(C(=O)c3ccc4cc[nH]c4c3)C2)c(C)c1 (configuration not stated)
53: COc1ccc(N2CCN(S(=O)(=O)c3cc(-c4cc(C)no4)ccc3C(C)C)CC2)cc1
54: CCCCNC(=O)c1c(N)n(N=Cc2ccccn2)c2nc3ccccc3nc12
55: CCOC(=O)c1sc(NC(=O)c2ccncc2)c(C#N)c1C
56: CC(=O)Nc1ccc(S(=O)(=O)c2cc(O)ccc2O)cc1
57: COc1ccc2c(COC(=O)CCS(=O)(=O)c3ccccc3)cc(=O)oc2c1
58: CCOc1ccccc1NC(=O)COC(=O)c1nc2nccc(C)n2n1
59: COc1ccc(/C=C/C(=O)OCC(=O)c2ccc[nH]2)cc1
60: COc1ccc(C(=O)OCCCN(C)C)cc1OC
assay / entry	51	52	53	54	55	56	57	58	59	60
Autofluor counter	5758	4917	6781	/	2488	3042	4104	3567	8067	2001
Sa ugtP lethal	-1	8	19	-9	18	2	9	6	4	-3
RN4220 kill	6.9	3.9	2.0	4.8	32	4.6	-0.3	-1.1	1.9	0.4
PrP UTR inh	-66	-57	1	/	-20	-13	-9	-20	-18	-16
BJeLR lethal	1	3	11	/	29	0	3	/	/	9
Mtb hypoxia inh	10	12	-3	-9	17	2	14	3	3	-1
Mtb hypoxia inh growth	20	6	1	-3	5	3	2	8	-1	9

61: Cc1ccc(S(=O)(=O)N2CCN(C(=O)c3ccc(COc4ccccc4)o3)CC2)cc1
62: CC(C)CNC(=O)CN(C)S(=O)(=O)c1ccc(F)cc1
63: Cc1ccc(S(=O)(=O)CCC(=O)OCC(=O)c2cc(C)n(C)c2C)cc1
64: COc1cccc2c3c(c(=O)[nH]c12)CC(C)(C)O3
65: Cc1ccc(C(=O)Nc2ccc3ncccc3c2)cc1
66: O=C(CN1CCN(Cc2ccccc2Cl)C1=O)NC1CCCCCC1
67: COc1ccc(N(C(=O)Cn2nnc3ccccc32)C2(C(=O)NC3CCCC3)CCCCC2)cc1
68: CC(C)(C)n1nnnc1C(c1cccnc1)N1CCN(c2cccc(C(F)(F)F)c2)CC1 (configuration not stated)
69: O=C1CN(C(=O)/C=C/c2ccccc2F)c2ccccc2N1
70: C[n+]1cc[nH]c1SCC(=O)c1ccccc1
assay / entry	61	62	63	64	65	66	67	68	69	70
Autofluor counter	2841	1992	6664	/	3601	5646	9026	2810	4415	2968
Sa ugtP lethal	10	6	-2	7	7	-6	8	-6	0	-2
RN4220 kill	2.0	-1.0	-1.5	5.7	-0.4	-6.0	4.5	-1.5	6.7	7.0
PrP UTR inh	-4	-25	-23	/	56*	-24	-18	-13	-32	-19
BJeLR lethal	/	8	/	2	15	-8	6	-9	3	-8
Mtb hypoxia inh	8	0	5	7	-6	/	14	2	16	/
Mtb hypoxia inh growth	-1	2	5	2	-3	/	6	6	13	/

71: Cc1c(CC(=O)NCCCCCC(=O)O)c(=O)oc2c(C)c3oc4c(c3cc12)CCCC4
72: Cc1cc2ncc(S(=O)(=O)C(C)(C)C)c(N)n2n1
73: COc1cccc(CNC(=O)[C@H](CCSC)NC(=O)N2CCn3c2nc2ccccc23)c1
74: O=[N+]([O-])c1cccc(NN=Cc2cccc(O)c2O)c1
75: O=C(COC(=O)c1ccccc1C(=O)N1CCN(c2ccccc2)CC1)NCc1ccccc1
76: CC(C)Oc1ccc(/C(O)=C2/C(=O)C(=O)N(CCCn3ccnc3)C2c2cccnc2)cc1 (configuration not stated)
77: N#Cc1ccccc1OCC(=O)NCCNC(=O)COc1ccccc1C#N
78: c1ccc2c(c1)ncn2-c1ccc(-c2ccnc3ncnn23)cc1
assay / entry	71	72	73	74	75	76	77	78
Autofluor counter	4076	3925	6934	/	4580	3522	5200	3819
Sa ugtP lethal	1	2	1	3	3	5	2	25
RN4220 kill	3.9	3.3	0.2	4.1	11	-1.2	0.9	6.5
PrP UTR inh	-10	-21	-5	/	-7	-15	-4	-117
BJeLR lethal	-2	3	4	/	8	1	6	4
Mtb hypoxia inh	-1	2	13	4	14	-3	-1	10
Mtb hypoxia inh growth	4	-7	5	-4	7	5	10	9
